Assay outcomes from PubChem BioAssay.
Rango release inh: qHTS Assay for Inhibitors of RanGTP induced Rango (Ran-regulated importin-beta cargo) - Importin beta complex dissociation; Potency, µM (titrated, usually from 46.1 µM), inactives show top-dose activity change, negative = inhibition; Biochemical FRET Rango-importin beta, RanGTP-induced dissociation; Snurportin-1 (Homo sapiens) + GTP-binding nuclear protein Ran (Homo sapiens) + Importin …; 0.071% of 340,000 active; AID 540253, 2011; active means falling FRET ratio curve, often poorly fitted, with flat reads before Ran was added; inconclusive means other falling curves, or compound fluorescence or quenching; inactive means flat or rising ratio curve;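 further: potency means the concentration at half of the fitted maximal effect; % of control where 0% means no effect; nearly all actives have a fitted effect of over 45% in size; -100% = wells without RanGTP and RCC1; the record marks most hits as doubtful in a second field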
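Rango FRET biosensor (snurportin-1 IBB flanked by N-terminal EYFP and C-terminal CFP10) at 0.1 uM, with 0.25 uM importin beta in PBS, 1mM DTT, 0.02% Tween-20, 0.1% BSA. 0.6 uM Ran, 2mM GTP and 0.2 uM RCC1 were then added for 45 min at room temperature. Inhibition read as loss of FRET rise.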
GLA inh pH 4.5: qHTS Assay for Inhibitors of Human alpha-Galactosidase at pH 4.5; activity change, negative = inhibition, % at 105 µM; 230,000 tested, under 10 active; AID 1467, 2008; Alpha-galactosidase A (Homo sapiens), P06280; purified enzyme, 4-MU-alpha-Gal fluorescence, pH 4.5; inconclusive = small, poorly fitted or top-dose-only inhibition, or a rising curve; inactive = flat fitted curve, though single readings scatter; no compound was filed as active;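 further: 0% = full activity with enzyme and -100% = basal without enzyme; dose as in the result columns while the protocol names 77 µM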
Target sequence (P06280 whole entry, looked up): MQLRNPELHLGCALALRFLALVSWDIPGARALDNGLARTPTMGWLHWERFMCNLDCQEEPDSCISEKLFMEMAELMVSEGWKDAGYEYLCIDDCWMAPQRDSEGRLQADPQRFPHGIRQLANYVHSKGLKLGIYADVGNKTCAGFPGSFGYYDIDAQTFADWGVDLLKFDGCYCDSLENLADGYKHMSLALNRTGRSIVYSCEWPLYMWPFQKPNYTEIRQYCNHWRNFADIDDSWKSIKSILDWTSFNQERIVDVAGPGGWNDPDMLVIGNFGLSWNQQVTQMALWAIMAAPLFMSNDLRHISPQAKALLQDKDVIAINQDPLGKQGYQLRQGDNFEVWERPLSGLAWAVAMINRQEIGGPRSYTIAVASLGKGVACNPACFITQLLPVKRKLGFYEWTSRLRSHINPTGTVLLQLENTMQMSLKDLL
miR-21 reporter: qHTS Assay for Modulators of miRNAs and/orActivators of miR-21. Potency, µM (top dose mostly 38.3 µM), for the others: at the top dose reporter change, positive = more light. HeLa miR-21 FLuc reporter, luciferase, 48 h. 340,000 tested, under 10 active; active = well fitted rising curve with a large enough effect; inconclusive = small, poorly fitted or top-dose-only effect; inactive = no such curve, though single readings can be large or run the other way;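 further: % of control where 0% means no effect; miR-21 action dims this reporter so a rising signal means less miR-21 action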
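HeLa cells stably expressing CMV-driven firefly luciferase with a downstream miR-21 binding sequence, endogenously expressing miR-21, were treated with titrations (up to about 40uM final) for 48 hours at 37 degree Celsius. Luciferase luminescence was read after lysis.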
Rango complex inh: qHTS Assay for Inhibitors of Rango (Ran-regulated importin-beta cargo) - Importin beta complex formation. Importin subunit beta-1 (Homo sapiens), Q14974. Rango CFP/YFP FRET sensor + importin beta, 45 min. Potency, µM (doses to about 92.2 µM), without a hit: at the top dose inhibition of complex formation. 0.031% of 340,000 active. AID 540263, 2011; active = rising FRET ratio curve, often small or poorly fitted; inconclusive = mostly compound fluorescence or quenching in the first reads; inactive = flat curves in all reads;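 further: potency means the concentration at half of the fitted maximal effect; 0% = DMSO wells and 100% = buffer wells lacking importin beta; nearly all actives have a fitted effect of over 15% in size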
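FRET biosensor Rango (snurportin 1 IBB between N-terminal EYFP and C-terminal Cerulean), 50 nM in PBS/1 mM DTT/0.02% Tween-20/0.1% BSA, preincubated 5 min RT with compound; 0.125 microM importin beta added, 45 min RT, CFP/YFP FRET ratio read.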
* marks the source's active call; other numbers are inactive results; ? = inconclusive; nt = not tested or not shown; & = joins results of further samples; [ ] = another dose, or the depositor's remark. An excerpt (hit frequency here may not be typical).

Sequence of screens – Rango release inh	GLA inh pH 4.5	miR-21 reporter	Rango complex inh
O=C1C2CCCN2C(c2cccnc2)N1c1ccc(Cl)cc1 (configuration not stated)
→ -2%	-11	-2%	-1.0%
CCCCCCC(=O)N/N=C/c1c(O)n(CCc2ccccc2)c(=O)[nH]c1=O
→ -13%	-7	2%	-0.2%
COC(=O)C1=C(c2ccc(OC(F)(F)F)cc2)C[C@@H]2CC[C@H]1N2C(=O)NC1CCCCC1
→ 3%	nt	nt	1.7%
CCOc1cc(C=C2C(=O)NC(=O)NC2=O)ccc1OCC(=O)N1CCOCC1
→ -9%	-5	10%	-1.3%
O=[N+]([O-])c1ccc(-[n+]2c(-c3ccccc3)cc(-c3ccccc3)cc2-c2ccccc2)cc1
→ -14%	nt	7%	1.0%
O=C(O)[C@@H]1C[C@H]1[C@@H](NP(=O)(c1ccccc1)c1ccccc1)c1ccccc1
→ 19%	-26&-4	-2%	-4.6%
CN(CCCCC(=O)/C=N/O)Cc1ccccc1 (tested in a mixture with another compound)
→ 1%	7	-2%	-0.3%
CCN(CC)CCN=Cc1c(O)n(C2CCCCCC2)c(=O)[nH]c1=O
→ 4%	6	-2%	0.2%
COc1ccc2[nH]c3c(c2c1)CCN[C@H]3C
→ 0%	nt	-5%	-0.3%
CCCCC1(CCCC)C(=O)NC(=Nc2cccc(C)c2)NC1=O
→ -4%	1	28%	0.1%
CC(=NCCN(C)C)c1c(O)n(Cc2ccccc2)c(=O)[nH]c1=O
→ 10%	-4	0%	3.5%
Cc1cc(C)cc(N2C(=O)NC(=O)/C(=C\c3cccn3-c3ccccc3)C2=O)c1
→ 1%	-1	23%	0.6%
COc1ccc(-c2nn(CCC#N)cc2C(=O)NCc2ccccc2)cc1[N+](=O)[O-]
→ -13%	nt	-12%	4.5%
CCCCCCCCCOc1ccc2[nH]cc(CCN)c2c1
→ nt	-3&-15	?	nt
O=C1NCN(c2ccccc2)C12CCNCC2
→ 14%	-6	-1%	-1.1%
CC(=NCCN1CCCCC1)c1c(O)n(Cc2ccccc2)c(=O)[nH]c1=O
→ -10%	3	-5%	0.5%
O=c1[nH]c(O)c(N=Nc2ccc([N+](=O)[O-])cc2)c(=O)[nH]1
→ 5%	-21	-7%	0.2%
CC(C)OP(=O)(OC(C)C)C(O)c1cccnc1 (configuration not stated)
→ 4%	0	-1%	0.4%
Cc1nn(Cc2ccccc2)c(Cl)c1C(=O)OCC(=O)NCC1CCCO1 (configuration not stated)
→ 13%	1	-4%	-1.0%
Cc1cc(/C=C2\C(=O)NC(=O)N(c3ccc(Br)cc3)C2=O)c(C)n1C
→ ?	-4	0%	?
COC1CCC(OC2CC(C3(C)CCC4(CC(O)C(C)C(C(C)/C=C(\C)C(=O)C(C)CC(C)C(=O)O)O4)O3)OC3(OC(C4OC(O)(CO)C(C)CC4C)CC3C)C2C)OC1C (configuration not stated)
→ 22%	nt	nt	-0.1%
C/C(=N\NC(N)=O)c1c(O)n(C)c(=O)n(C)c1=O
→ 14%	3	2%	-3.5%
O=C(c1sc2ccccc2c1Cl)N1CCC2(CC1)OCCO2
→ 25%	-8	-32%	3.7%
CCCCc1nc2ccccc2c(=O)n1-c1ccccc1O
→ -1%	-3	-4%	3.2%
Cc1ccc(NC(=O)CN2C(=O)CN=C(c3ccccc3)c3cc(Cl)ccc32)cc1
→ 7%	-6	22%	3.4%
CCC1(CC)C(=O)N(Cc2ccccc2)C(=O)N(Cc2ccccc2)C1=O
→ -9%	-5	1%	0.8%
C/C=C(\C)C(=O)N[C@@H](c1ccccc1)[C@@H](O)C(=O)O[C@H]1C[C@@]2(O)[C@@H](OC(=O)c3ccccc3)C3[C@](C)(C(=O)[C@H](OC(C)=O)C(=C1C)C2(C)C)[C@H](O)C[C@H]1OC[C@@]31OC(C)=O (some centres not stated)
→ 2%	nt	14%	-2.5%
C[C@]12CC[C@@H](O)C[C@@H]1CC[C@@H]1[C@@H]2CC[C@]2(C)[C@@H](O)CC[C@@H]12
→ 2%	-5	-5%	1.9%
COc1ccc2[nH]c3c(c2c1)CCNC3
→ -4%	-1	nt	0.3%
Cc1cccc(N=Nc2ccc(N(C)C)cc2)c1
→ 11%	nt	-70%	3.8%

Remaining list, next part.
Sequence of screens – Rango release inh	GLA inh pH 4.5	miR-21 reporter	Rango complex inh
O=C(O)C1C(C(=O)O)C2(Cl)C(Cl)=C(Cl)C1(Cl)C2(Cl)Cl (configuration not stated)
→ -6%	nt	nt	-2.2%
COC(=O)C1=C(c2cccc(C#N)c2)C[C@@H]2CC[C@H]1N2C(=O)N1CCC(C)CC1
→ 1%	nt	nt	0.3%
CCCCn1c(O)c(/C=N/NC(=O)c2ccncc2)c(=O)[nH]c1=O
→ ?	-22	7%	-5.0%
COc1ccc(C(=O)C2CCCN(Cc3ccsc3)C2)cc1OC (configuration not stated)
→ -8%	9	1%	3.0%
C=Cn1ccnc1P(=S)(c1cc(N(CC)CC)ns1)c1nccn1C=C
→ 15%	1	-8%	3.1%
COC(=O)C1=C(c2cccc(OC)c2OC)C[C@@H]2CC[C@H]1N2C(=O)NCc1ccco1
→ 5%	nt	nt	-1.0%
CC1CCC(C(=O)NC(C(=O)N2CCC3(CC2)OCCO3)C(C)C)CC1 (configuration not stated)
→ -18%	3	-6%	0.1%
CC1=NN(c2ccccc2)C(=O)/C1=C/c1c(O)[nH]c(=O)[nH]c1=O
→ 35%	-8	2%	-5.0%
CC(C)(C)n1cc(C(=O)c2ccc3ccccc3c2O)cn1
→ -3%	-6	-68%	0.7%
O=[N+]([O-])c1ccc(NCc2ccc(Cl)cc2)c2ccncc12
→ 0%	nt	1%	-1.7%
CCC(C)n1c(O)c(C=Nc2cccc(C(F)(F)F)c2)c(=O)[nH]c1=S (configuration not stated)
→ -7%	3	0%	0.0%
COc1ccc(-n2c(O)c(C=NCCN3CCN(C(C)=O)CC3)c(=O)[nH]c2=S)cc1
→ -15%	nt	0%	0.3%
Fc1ccc(CNCCc2ccccc2)cc1
→ 5%	-4	-14%	0.4%
COC(=O)C1=C(c2cccc(OCc3ccccc3)c2)C[C@@H]2CC[C@H]1N2C(=O)NCc1ccc(OC)cc1
→ 2%	nt	nt	1.6%
CCCCOC(=O)n1c(=O)oc2ccccc21
→ -2%	8	-31%	-2.2%
CC(=O)Nc1ccccc1C(=O)OCC(=O)Nc1ncccn1
→ -6%	nt	-5%	2.9%
CCCCn1c(O)c(/C=C/C=Nc2ccccc2)c(=O)[nH]c1=O
→ ?	-6	-4%	?
Cc1ccc(OCC(=O)NCCN2CCN(C(=O)COc3ccc(C)cc3)CC2)cc1
→ 0%	-3	-1%	-1.2%
O=C1C2CCN(CC2)C1Cc1ccc(OCc2ccccc2)cc1 (configuration not stated)
→ 5%	5	-8%	0.3%
CSc1nnc([C@@H](N)Cc2c[nH]c3ccccc23)o1
→ -10%	0	3%	1.1%
COC(=O)C1=C(c2ccccc2)C[C@@H]2CC[C@H]1N2C(=O)N1CCCCC1
→ 19%	nt	nt	2.5%
c1ccc2c(c1)Sc1ccccc1N2CC1CN2CCC1CC2 (configuration not stated)
→ -4%	1	?	-3.1%
COc1cc(OC)c(OC)cc1CNC(C)C(O)c1ccccc1 (configuration not stated)
→ 3%	8	-8%	2.7%
CC1(C(=O)O)CC12c1ccccc1-c1ccccc12 (configuration not stated)
→ ?	nt	nt	0.2%
CC(=O)Nc1ccc(OC(=O)N(C)c2ccc(C)cc2)cc1
→ 14%	nt	-7%	2.8%
CC(O)(CS(=O)(=O)c1cccc(C(F)(F)F)c1)C(=O)Nc1cccc(C(F)(F)F)c1 (configuration not stated)
→ -11%	-4	3%	7.5%
CCC(C)c1ccc(N2C(=O)NC(=O)/C(=C/c3cccn3CCOc3ccc(C)cc3)C2=O)cc1 (configuration not stated)
→ -6%	6	-2%	?
C[N+](C)(C)CC(=O)Nc1ccc(Cl)cc1C(=O)c1ccccc1
→ 13%	3[21.1 µM]	1%	2.8%
COC(=O)C1=C(c2cccc(OCc3ccccc3)c2)C[C@@H]2CC[C@H]1N2C(=O)NCc1ccccc1C(F)(F)F
→ 3%	nt	nt	-2.0%
COc1ccccc1N1CCN(Cc2ccc(Cl)cc2Cl)CC1
→ -2%	-3	-2%	-3.7%

Later entries.
Sequence of screens – Rango release inh	GLA inh pH 4.5	miR-21 reporter	Rango complex inh
CN1CCN(C(=O)COc2ccc(Oc3ccccc3)cc2)CC1
→ 11%	2	-1%	-0.4%
COc1ccccc1OCCCn1cc(C=O)c2ccccc21
→ 17%	-7	-34%	-2.5%
c1csc(-c2nnc(COc3ccc4c(c3)OCO4)o2)c1
→ 14%	-9	-56%	-0.9%
CCN(CC(=O)Nc1ccc(C#N)c(Cl)c1)CC(=O)NC1CCS(=O)(=O)C1 (configuration not stated)
→ -14%	nt	nt	-0.3%
O=C1CN=C(c2ccccc2Cl)c2cc(Br)ccc2N1
→ -8%	nt	nt	-3.1%
CCOP(=O)(OCC)C(c1ccccc1)N(C)C=O (configuration not stated)
→ 1%	0	-4%	-0.4%
CCN(CCNc1ccc([N+](=O)[O-])c2cccnc12)S(=O)(=O)c1ccccc1
→ 1%	-5	-6%	1.0%
CCOP(=O)(OCC)C1(O)C(=O)Nc2ccc(Br)cc21 (configuration not stated)
→ -9%	1	2%	-0.8%
O=C(c1cccc(Cl)c1)C1CCCN(Cc2ccon2)C1 (configuration not stated)
→ -10%	3	-2%	1.2%
COc1cccc(C2(O)CCSCC2CN(C)C)c1 (configuration not stated)
→ -15%	-13	0%	-0.5%
c1ccc2c(CCNCc3ccc4c(c3)OCO4)c[nH]c2c1
→ 1%	8	-36%	-4.9%
O=C1NC(=O)C(=Cc2ccc(-c3ccc(Cl)cc3)o2)C(=O)N1
→ ?	nt	0%	4.6%
Cc1cc(NC(=O)CCl)on1
→ -1%	5	16%	-2.1%
CC[C@H]1CN(C)CCc2c([nH]c3ccccc23)C(=O)C[C@@H]1/C(=C\OC)C(=O)OC
→ -5%	nt	nt	?
CN1CC[C@]2(c3cccc(O)c3)Cc3nc4ccccc4cc3C[C@H]2C1
→ nt	-3	-2%	nt
CCCCn1c(O)c(C(C)=NCCN2CCOCC2)c(=O)[nH]c1=O
→ -5%	7	0%	0.0%

Shown field by field: part of the list above.
CC(=NCCN1CCCCC1)c1c(O)n(Cc2ccccc2)c(=O)[nH]c1=O
- Rango release inh: -10%
- GLA inh pH 4.5: 3
- miR-21 reporter: -5%
- Rango complex inh: 0.5%

O=c1[nH]c(O)c(N=Nc2ccc([N+](=O)[O-])cc2)c(=O)[nH]1
- Rango release inh: 5%
- GLA inh pH 4.5: -21
- miR-21 reporter: -7%
- Rango complex inh: 0.2%

CC(C)OP(=O)(OC(C)C)C(O)c1cccnc1 (configuration not stated)
- Rango release inh: 4%
- GLA inh pH 4.5: 0
- miR-21 reporter: -1%
- Rango complex inh: 0.4%

Cc1nn(Cc2ccccc2)c(Cl)c1C(=O)OCC(=O)NCC1CCCO1 (configuration not stated)
- Rango release inh: 13%
- GLA inh pH 4.5: 1
- miR-21 reporter: -4%
- Rango complex inh: -1.0%

In the list so far, these have a furan ring, fused or not.
Sequence of screens – Rango release inh	GLA inh pH 4.5	miR-21 reporter	Rango complex inh
COC(=O)C1=C(c2cccc(OC)c2OC)C[C@@H]2CC[C@H]1N2C(=O)NCc1ccco1
→ 5%	nt	nt	-1.0%
O=C1NC(=O)C(=Cc2ccc(-c3ccc(Cl)cc3)o2)C(=O)N1
→ ?	nt	0%	4.6%
